Env fusion inh: inhibitors of HIV-1 Env-driven cell-cell fusion, primary screen, HeLa-JRFL effector, CEM21 target cells, luciferase; hit rate 1.1% among 360,000; AID 651610, 2012; inhibition, % at 12.3 µM;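 active means mean replicate inhibition score of at least 50 and every replicate individually at or above 50; inconclusive means only one of the two criteria met; inactive means mean below 50 and not all replicates reaching 50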;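 further: 0% = plate neutral controls and 100% = maraviroc near 300 nM; one replicate is shown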
UUG fidelity: modulators of yeast start codon fidelity, primary screen, whole organism, S. cerevisiae, single point, plate reader; S. cerevisiae UUG-firefly luciferase reporter, luminescence/redox ratio; activity score, % at 18.7 µM; hit rate 0.13% among 350,000; AID 602363, 2012;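 active means replicate mean at a twofold rise or more, about +100% in these data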;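 further: firefly luciferase made from a UUG start codon reports start codon fidelity; reporter light over untreated wells divided by growth signal over untreated wells; some hits fall short of that in this replicate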
CSC inhib: cancer stem cell viability inhibitors, primary screen, luminescence; cancer stem cell-like cells viability; inhibition, % at 7.5 µM; hit rate 1.1% among 300,000; AID 2717, 2010;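 active means mean at 75% or more and at least half the replicates too; inconclusive means mean and replicates disagree; tested in HMLE shEcad cells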;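 further: 0% = median of negative and 100% = median of positive control wells; the first replicate is given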
Rce1 inh: yeast Rce1p protease inhibitors, primary screen, biochemical, fluorescence, cell-free homogeneous; AID 2563, 2010; CAAX prenyl protease 2 (Saccharomyces cerevisiae (strain ATCC 204508 / S288c)), Q03530; calls only; yeast membranes, quenched prenylated peptide cleavage fluorescence; hit rate 0.27% among 290,000;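 active means fall in fluorescence gain of 50% or more versus controls, with final raw signal at or below 3038400; inconclusive means same 50% fall but final raw signal above 3038400; inactive means fall in fluorescence gain under 50%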;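 further: plate controls were neutral control wells for no effect and wells lacking membranes for full effect; tested at 10 µM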
PABP polyA inh: PABP poly(A) RNA binding inhibitors, primary screen, biochemical, fluorescence polarization, uHTS | Polyadenylate-binding protein 1 (Homo sapiens), P11940 | inhibition, % at 35 µM | hit rate 1% among 290,000;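 active means 50% or more with normal probe brightness, or confirmed in later tests; inconclusive means above 50% with abnormal brightness, or retests that disagree; inactive means below 50% or failed in later tests; about a fifth of its hits are not listed in these tables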;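 further: calls also rest on retests at 20 µM and on dose response follow-up; controls were probe without protein and protein plus probe with vehicle; some compounds called inactive have numbers as strong as hits; many hits fall short of the cut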
Target sequence (P11940 whole entry, looked up): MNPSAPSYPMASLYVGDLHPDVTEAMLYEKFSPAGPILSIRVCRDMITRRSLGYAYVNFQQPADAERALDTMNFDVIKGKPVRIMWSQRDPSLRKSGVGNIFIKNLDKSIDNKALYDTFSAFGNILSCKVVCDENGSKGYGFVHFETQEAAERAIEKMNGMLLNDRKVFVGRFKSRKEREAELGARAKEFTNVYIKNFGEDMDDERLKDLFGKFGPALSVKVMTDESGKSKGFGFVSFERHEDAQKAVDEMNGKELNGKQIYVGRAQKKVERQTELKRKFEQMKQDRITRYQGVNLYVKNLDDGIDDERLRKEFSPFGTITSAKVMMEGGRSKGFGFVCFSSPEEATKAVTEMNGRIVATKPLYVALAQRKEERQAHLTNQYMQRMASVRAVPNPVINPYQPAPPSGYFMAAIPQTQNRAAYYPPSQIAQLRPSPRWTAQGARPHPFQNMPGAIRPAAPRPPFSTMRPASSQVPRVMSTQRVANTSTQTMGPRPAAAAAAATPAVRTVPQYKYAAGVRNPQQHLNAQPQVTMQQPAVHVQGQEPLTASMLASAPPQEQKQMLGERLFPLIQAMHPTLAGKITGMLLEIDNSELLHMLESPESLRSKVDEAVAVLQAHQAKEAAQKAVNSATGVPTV
MT1-MMP act inh: blockers of MT1-MMP proenzyme processing, primary screen, HT1080 RFP-PRO-GFP cells, GFP/RFP fluorescence; Matrix metalloproteinase-14 (Homo sapiens), P50281; GFP/RFP ratio fluorescence, overnight; percent of plate control window, DMSO zero; GFP/RFP ratio change, % at 20 µM; hit rate 0.061% among 360,000;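 active means GFP/RFP ratio change of at least 30% with cell ATP level not reduced by more than half and red fluorescence within 50% of control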; further: strong numbers were not always called active
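Assay system: HT1080 cells carrying an RFP-PRO-GFP reporter | Dosing: Single dose of 20 µM compound, 1% DMSO final | Incubation: Cells overnight before dosing, compound overnight, 37 °C, 5% CO2 | Evaluation: GFP/RFP fluorescence ratio | Control set: DMSO and RFP-L50D-GFP cell wells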
eIF4H FP inh: human eIF4H binding inhibitors, primary screen, translation initiation inhibitor project, biochemical, uHTS, fluorescence polarization. inhibition, % at 35 µM. AID 2012, 2009. hit rate 0.94% among 290,000. eIF4H fluorescence polarization binding assay. Eukaryotic translation initiation factor 4H (Homo sapiens), Q15056;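 active means 50% or more with normal probe brightness, or confirmed in later tests; inconclusive means above 50% with abnormal brightness, or retests that disagree; inactive means below 50% or failed in later tests; about a fifth of its hits are not listed in these tables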;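 further: calls also rest on retests at 20 µM and on dose response follow-up; 0% = protein and probe with vehicle and 100% = probe without protein; strong numbers were not always called active; many hits fall short of the cut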
eIF4H FP inh retest: also measured in eIF4H FP inh; calls as there; inhibition, %; compound at 20 µM; confirmation average;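 mean of two retest wells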
PABP polyA inh retest: also measured in PABP polyA inh; calls as there; inhibition, %; compound at 20 µM; confirmation repeats;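 mean of two retest wells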
MT1-MMP act inh RFP: also measured in MT1-MMP act inh; calls as there; RFP signal change, %; measured here: RFP expression control read;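 0 = vehicle wells; hits needed this value within 50% of zero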
An asterisk follows results filed as active; i = inactive; ? = inconclusive; nt = not tested or not shown.

SMILES | Env fusion inh | UUG fidelity | CSC inhib | Rce1 inh | PABP polyA inh | MT1-MMP act inh | MT1-MMP act inh RFP | eIF4H FP inh | others
COc1ccc(-c2cnnn2-c2ccc([N+](=O)[O-])cc2)cc1 | 9 | 7 | -9 | i | 15 | 5 | 5 | 19
CCOC(=O)CCc1c(C)nc(SCCCn2c(=O)[nH]c3ccccc32)c(C#N)c1C | nt | -6 | -11 | i | 6 | 13 | -2 | 2
O=C(NCCCn1ccnc1)c1ccc2c(c1)OCCO2 | 4 | -12 | nt | i | 10 | 0 | -1 | 3
O=C1N=C(N2CCOCC2)CS1 | nt | nt | -3 | i | -2 | -4 | 1 | -4
CC1CCN(S(=O)(=O)c2ccc(C(=O)Nc3ccccc3-c3nc4ccccc4[nH]3)cc2)CC1 | 4 | nt | 17 | i | 4 | -3 | -5 | 5
Cc1cccc(NC(=O)N(Cc2cc3cc(C)ccc3[nH]c2=O)CC2COCCO2)c1 (stereo unspecified) | 13 | 8 | -20 | i | -1 | -5 | -6 | 5
COc1cc(CC(=O)Nc2ccc3nc(SC)sc3c2)cc(OC)c1OC | -12 | nt | 4 | i | -1 | 2 | -2 | 4
Cc1cccc(-n2ncc3c(N4CCC(C)CC4)ncnc32)c1 | -136 | -21 | 42 | i | 126 | -2 | -5 | 130 | eIF4H FP inh retest=7;PABP polyA inh retest=-2
CCC1C(=O)CC(c2ccco2)NC1c1ccco1 (stereo unspecified) | nt | -8 | -31 | i | 15 | 5 | 6 | 10
CN(C)/C=C/C(=O)c1cnc2sccn2c1=O | -3 | -6 | -7 | i | 6 | -1 | 5 | -14
CC1=CN2C(=N)/C(=C/c3ccco3)C(=O)N=C2S1 | -130 | nt | nt | i | 2 | 9 | 12 | 21
Cn1c(N)c(C(=O)COC(=O)CCc2nc3ccccc3s2)c(=O)n(C)c1=O | 1 | -7 | -10 | i | 10 | 0 | 1 | -7
S=C(NC1CCCCC1)N1CCOCCOCCN(C(=S)NC2CCCCC2)CCOCCOCC1 | 40 | -12 | -12 | i | 2 | 2 | -7 | 5
Cc1ccc(S(=O)(=O)CCC(=O)O)cc1C | -48 | 2 | -3 | i | -3 | 16 | 4 | 7
Cc1ccccc1OCc1nc2ccccc2c(=O)n1/N=C/c1cn[nH]c1-c1ccc(Br)cc1 | nt | nt | 28 | i | -1 | -5 | -6 | 3
Cc1cc(C(=O)N/N=C/C=C/c2cccc([N+](=O)[O-])c2)n[nH]1 | -15 | -14 | -1 | i | -2 | 3 | 2 | 90 | eIF4H FP inh retest=8;PABP polyA inh retest=2
CC(Oc1ccccc1)C(=O)Nc1ccc(S(=O)(=O)N2CCOCC2)cc1 (stereo unspecified) | nt | -17 | -9 | i | 2 | 3 | -1 | 7
Cc1nn(-c2ccc(C(=O)O)cc2)c(C)c1Oc1ccccc1O | -8 | -7 | -8 | i | 9 | 3 | 5 | 6
Cc1ccc2cc(CN(CCN3CCCC3)C(=O)Nc3ccc(F)cc3)c(=O)[nH]c2c1C | nt | 14 | 16 | i | -16 | -4 | 0 | -11
OCC1(CCc2ccccc2)CCCN(C/C=C/c2ccccc2)C1 (stereo unspecified) | 27 | 10 | 18 | i | -8 | 3 | 0 | 2
Cc1ccc(C)c(N2N=C(C(=O)NCCN3C(=O)S/C(=C\c4cccnc4)C3=O)CCC2=O)c1 | -3 | -10 | -9 | i | nt | -6 | -5 | nt
CCCn1c(N)c(C(=O)COC(=O)CNC(=O)c2ccc(C)c(C)c2)c(=O)n(C)c1=O | -7 | 3 | nt | nt | nt | 0 | 1 | nt
CCN(CC)C(=O)Oc1nnc(SC(C)C)n1-c1ccc(Cl)c(Cl)c1 | 28 | 13 | -10 | i | 16 | nt | nt | 0
Cc1ccc[n+](-c2nc([O-])sc2C=O)c1 | -7 | nt | -9 | nt | 53 | -105 | 1 | 131 | eIF4H FP inh retest=-3;PABP polyA inh retest=10
O=C(CCN1C(=O)[C@@H]2Cc3ccccc3CN2C1=O)N[C@H](Cc1ccccc1)C(=O)O | nt | -16 | -13 | i | 8 | 2 | 4 | -4
SMILES | Env fusion inh | UUG fidelity | CSC inhib | Rce1 inh | PABP polyA inh | MT1-MMP act inh | MT1-MMP act inh RFP | eIF4H FP inh | others
CC(C)(C)OC(=O)NCCC(=O)Oc1ccc2ccc(=O)oc2c1 | nt | -8 | -4 | i | -2 | 1 | 3 | -3
Cc1nc(SCC(=O)Nc2cccc(Cl)c2)n[nH]1 | nt | -9 | nt | i | 4 | 1 | 5 | -4
Cc1cccn2c(=O)c(/C=C(\C#N)S(=O)(=O)c3ccccc3)c(N3CCC(C(N)=O)CC3)nc12 | 36 | 3 | 17 | i | 2 | -2 | 1 | -2
CCc1ccc(C(=O)Nn2cnc3ccccc3c2=O)cc1 | -53 | -23 | 4 | i | 2 | 2 | 5 | 6
Cc1nc(NCCc2ccc(F)cc2)c(C#N)c(C)c1[N+](=O)[O-] | -26 | nt | 12 | i | 68 | -4 | -4 | 7 | eIF4H FP inh retest=28;PABP polyA inh retest=40
COCCn1c(CN2CCc3ccccc3C2)nc2c1c(=O)n(C)c(=O)n2C | 8 | nt | 8 | i | -1 | 1 | -1 | -4
Cc1ccc(F)c(NC(=O)/C(C#N)=C(\O)c2ccc(C(C)(C)C)cc2)c1 | -14 | nt | 79* | i | 5 | 3 | 6 | -3
N=c1c2c(ncn1Cc1ccco1)Oc1c(ccc3ccccc13)C2c1ccccc1 (stereo unspecified) | nt | nt | 102* | i | -5 | -5 | -13 | -8
C/C(=N\NC(=O)C(N)=O)c1cccc([N+](=O)[O-])c1 | 5 | nt | -4 | i | -9 | -1 | 2 | 43
COc1ccccc1NC(=O)Cn1nc(-c2ccc3c(c2)OCCO3)ccc1=O | 6 | nt | 16 | i | -3 | 0 | -1 | -4
O=C(NC1CCCC1)c1cnn2c(C(F)(F)F)cc(-c3ccco3)nc12 | -10 | -3 | -5 | i | 10 | -7 | -5 | 12
COc1ccc(Cn2c(=S)[nH]c3cc(C(=O)N4CCCCC4)ccc3c2=O)cc1 | 5 | -6 | 8 | nt | 10 | 2 | -5 | -3
COc1ccc(N(C)C(=O)c2cn(CC(C)C)c(=O)c3cc(OC)c(OC)cc23)c(OC)c1 | 1 | -1 | -3 | i | -11 | -1 | -1 | 0
O=C(CCN1C(=O)/C(=C/c2ccccc2Cl)SC1=S)NC1=NCCS1 | 5 | nt | -5 | i | 4 | 2 | 3 | -11
O=c1c2ccccc2c(-c2ccc(O)cc2)nn1-c1cccc(C(F)(F)F)c1 | 19 | -7 | 67 | i | 39 | -7 | -5 | -7
Clc1ccc2c(N/N=C/c3cccc(Br)c3)ccnc2c1 | 6 | -4 | 80* | i | -7 | 9 | 2 | -12
Cc1ccccc1Nc1n[nH]c(C)c1[N+](=O)[O-] | -41 | -11 | -10 | i | 2 | -1 | 2 | -8
CCOC(=O)N1CCN(C(=S)Nc2cccc(C)c2C)CC1 | -1 | -2 | -9 | i | -3 | 2 | 1 | 4
COc1ccc(-n2cc(-c3ccccc3)[nH]c2=S)c(OC)c1 | 8 | -15 | 22 | i | 5 | 5 | -7 | -6
Cn1cc(CN2CCc3c([nH]c4ccccc34)C2C(C)(C)C)cn1 (stereo unspecified) | 5 | nt | -6 | i | -4 | -3 | 2 | 0
O=C(Nc1cccc2ncccc12)C(Cl)(Cl)Cl | nt | -16 | -2 | i | 2 | -1 | 0 | 6
CCc1nc2ccc(C(=O)NCCCN3CCCC3=O)cn2c1N(C)C(=O)COc1ccccc1 | 1 | -12 | nt | nt | nt | -7 | 1 | nt
O=C(Nc1ccccc1F)C1CC1c1ccccc1 (stereo unspecified) | -18 | nt | -11 | i | -4 | 1 | 2 | -7
OCCC1CN(Cc2ccccc2O)CCN1CCCc1ccccc1 (stereo unspecified) | 1 | -3 | -9 | i | -12 | -1 | 0 | -5
O=C(CSc1nnc(COc2ccc(Cl)cc2Cl)o1)Nc1ccccn1 | -5 | -14 | 6 | i | 5 | 3 | 3 | -3
SMILES | Env fusion inh | UUG fidelity | CSC inhib | Rce1 inh | PABP polyA inh | MT1-MMP act inh | MT1-MMP act inh RFP | eIF4H FP inh | others
O=C1c2ccccc2CSc2c(O)cccc21 | 1 | -2 | 2 | i | nt | 4 | -1 | nt
Cc1nc2ccccc2c2oc(C(=O)Nc3ccc(C(C)C)cc3)cc12 | 12 | nt | nt | i | 3 | 9 | -7 | -13
Cn1nccc1C(=O)N(CCN1CCCCC1)CC1CCCN(C2CCCC2)C1 (stereo unspecified) | -17 | -10 | -6 | i | -1 | 1 | 2 | -5
O=C(O)c1cn(-c2ccccc2)nc1-c1ccc(F)cc1 | 1 | -9 | -1 | i | -6 | 4 | 4 | -16
Cn1c(Cl)c(C(=O)Nc2ccc(Cl)cc2)c2ccccc21 | nt | 1 | 38 | nt | 2 | -10 | -4 | 1
Cn1c(Sc2ccc([N+](=O)[O-])cc2C(F)(F)F)nnc1-c1ccccc1 | 16 | 7 | -7 | i | 18 | 1 | 0 | -6
O=C(CCCc1cccs1)Nc1nc(-c2ccc(F)cc2)cs1 | -7 | nt | -7 | i | 3 | -4 | -8 | -4
CS(=O)(=O)c1ccc(C(=O)NCC2(N3CCOCC3)CCCCC2)cc1 | -4 | -19 | nt | nt | nt | -2 | -2 | nt
O=C(NCCN1CCOCC1)c1ccncc1 | -73 | -21 | -10 | i | -7 | 2 | 7 | 9
O=c1[nH]nc(N/N=C/c2ccc(Cl)cc2Cl)c(=O)[nH]1 | ? | -12 | 0 | i | -4 | 3 | -3 | -7
CC1(C)CC(=O)C(C(C2=C(O)CC(C)(C)CC2=O)c2ccc(O)c([N+](=O)[O-])c2)=C(O)C1 | -3 | nt | 3 | i | 20 | 1 | 2 | 3
O=C(NCc1cccnc1)Nc1ccccc1C(F)(F)F | nt | -18 | -5 | i | 0 | -1 | 0 | -4
CC(=O)c1ccc(N2C(=O)[C@@H]3C(C(=O)CCN4C(=O)c5ccccc5C4=O)=NN[C@@H]3C2=O)cc1 | 7 | nt | 5 | i | -6 | 2 | 2 | 6
COc1ccc(C(=O)COC(=O)C(CCSC)NC(=O)COc2ccccc2)c(OC)c1 (stereo unspecified) | -11 | -40 | 12 | i | 3 | -3 | -3 | 3
CC(C)C(c1nnnn1C1CCCC1)N1CCCCC1 (stereo unspecified) | -80 | -16 | 2 | i | 7 | -4 | 3 | 4
COc1ccc(-c2nnc(SCc3cccnc3)o2)cc1 | nt | -14 | 2 | i | 23 | 7 | -2 | -9
COC(=O)C(C)Sc1nc2c(c(-c3ccc(OC)cc3)c1C#N)-c1ccccc1C2=O (stereo unspecified) | -24 | -8 | -4 | i | nt | -2 | -6 | nt
COc1cc2c(cc1OC)C(c1ccccc1[N+](=O)[O-])N(C(C)=O)CC2 (stereo unspecified) | -12 | 0 | -9 | i | 0 | 5 | 5 | -3

Screens: PubChem, several laboratories
